HNF4A DNA FP – change in binding of human HNF4 alpha to DNA; P41235; HNF4a-FITC DNA binding, fluorescence polarization, 1 h; activity change, % at 10 µM; 360,000 tested, 0.3% active; AID 1224865; in the data active means activity change above about 30%, passing the limit was not always enough;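 further: controls were the assay level and a saturating level of protein; the project sought stronger binding though the title names inhibitors; some compounds called inactive have numbers as strong as hits; positive values seem to mean higher polarization but the record does not say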
UCH37 inh – blocks the human deubiquitinase UCH37; Q9Y5K5; purified proteasome/UCH37, Ub-AMC cleavage fluorescence; inhibition, % (test concentration not listed); 330,000 tested, 0.33% active;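 active means mean of two replicates above 20%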;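 further: 0% = compound-free wells with enzyme and 100% = wells lacking proteasome; stock transfer was 100 nL into about 20 µL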
Target sequence (Q9Y5K5 whole entry, looked up): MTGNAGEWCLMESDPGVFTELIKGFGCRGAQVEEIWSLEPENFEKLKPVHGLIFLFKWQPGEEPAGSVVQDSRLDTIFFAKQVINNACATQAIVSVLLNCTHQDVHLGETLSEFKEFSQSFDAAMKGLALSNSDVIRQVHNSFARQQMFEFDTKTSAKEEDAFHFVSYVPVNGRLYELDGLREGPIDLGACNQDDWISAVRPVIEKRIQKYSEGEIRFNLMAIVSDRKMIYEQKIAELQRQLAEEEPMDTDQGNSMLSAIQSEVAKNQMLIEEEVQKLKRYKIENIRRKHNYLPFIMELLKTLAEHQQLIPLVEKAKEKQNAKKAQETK
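system = Proteasome-associated human UCH37 deubiquitinase | amount = 0.15 nM proteasome as dispensed | medium = pH 7.4 Tris-HCl (50 mM) with ovalbumin, ATP-MgCl2, DTT | incubation = 30 min preincubation with enzyme, 25 min cleavage at room temperature | detection = AMC fluorescence 355/460 nm | read-out basis = percent inhibition | controls = no-proteasome and no-compound wells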
Vif TR-FRET – HIV-1 Vif–A3G interaction blockers – biochemical, TR-FRET, GST-Vif 1-94, biotin-A3G peptide, dose response retest, primary screen (AID 1117319) | TR-FRET GST-Vif / biotin-A3G peptide binding; higher % means a stronger effect; test concentration not given here; strong numbers were not always called active | one-dose inhibition, %; IC50 in µM for titrated hits | 260,000 tested, 0.57% active;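 active means above the screen mean plus three standard deviations and confirmed in dose response; inconclusive means results disagree or hit not tested in dose response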;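 further: Vif residues 1-94 fused to GST binding biotinylated APOBEC3G peptide 110-148; 0% = full assay without inhibitor and 100% = GST in place of GST-Vif; retest series ran down from 100 µM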
FGF22 binding – FGF22 (human) thermal shift binding; Q9HCT0; recombinant FGF22 thermal shift, SYPRO orange fluorescence; percent of sucrose octasulfate shift, DMSO zero; calls only at 9.99 µM; 340,000 tested, 1.5% active; AID 651658;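 active means melting point raised past a set limit in the mean and every replicate; inconclusive means no clear call; three in four hits are not shown here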
Target sequence (Q9HCT0 whole entry, looked up): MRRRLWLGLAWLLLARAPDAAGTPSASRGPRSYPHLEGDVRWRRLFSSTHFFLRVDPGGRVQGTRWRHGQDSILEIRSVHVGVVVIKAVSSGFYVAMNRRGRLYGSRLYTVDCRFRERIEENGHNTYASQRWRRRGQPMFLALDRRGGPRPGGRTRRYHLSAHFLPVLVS
E coli growth – E. coli growth inhibition; Escherichia coli growth, OD600, 23 h; active compounds read low; OD600 absorbance (test concentration not listed); 330,000 tested, 0.21% active; AID 1053175;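 active means OD600 absorbance below the run mean of sample wells minus 3.6 SD, in any replicate, cut at about 0.56 in these data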;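 further: stock transfer was 300 nL into about 60 µL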
RanGTP-Imp inh – disruptors of Ran-importin-beta complex formation – biochemical, FRET, CFP-Ran, YFP-importin-beta, homogeneous, primary screen; cell-free CFP-Ran/YFP-importin-beta FRET ratio; inhibition, % (concentration not given with the values); 300,000 tested, 1.1% active; AID 2216;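 active means most replicates above 15%; inconclusive means exactly half above 15%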;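 further: 0% = DMSO wells and 100% = Ran loaded with GDP instead of GTP; wells of about 40 µL received 100 nL stock; the first replicate is given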
AF4-AF9 inh – blocks AF4 peptide binding to human AF9; AID 651704; P42568; AlphaScreen, biotin-AF4 peptide binding to FLAG-AF9; inhibition, % at 10 µM; 350,000 tested, 0.47% active;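 active means every replicate reaching a set inhibition limit, whatever the replicate mean, cut at about 25% in these data; inconclusive means mean inhibition reaches that limit but some replicates miss it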;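 further: 0% = plate neutral control median and 100% = total signal loss; the record names both 10 and 1 µM as test concentration; the first replicate is given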
Target sequence (P42568 whole entry, looked up): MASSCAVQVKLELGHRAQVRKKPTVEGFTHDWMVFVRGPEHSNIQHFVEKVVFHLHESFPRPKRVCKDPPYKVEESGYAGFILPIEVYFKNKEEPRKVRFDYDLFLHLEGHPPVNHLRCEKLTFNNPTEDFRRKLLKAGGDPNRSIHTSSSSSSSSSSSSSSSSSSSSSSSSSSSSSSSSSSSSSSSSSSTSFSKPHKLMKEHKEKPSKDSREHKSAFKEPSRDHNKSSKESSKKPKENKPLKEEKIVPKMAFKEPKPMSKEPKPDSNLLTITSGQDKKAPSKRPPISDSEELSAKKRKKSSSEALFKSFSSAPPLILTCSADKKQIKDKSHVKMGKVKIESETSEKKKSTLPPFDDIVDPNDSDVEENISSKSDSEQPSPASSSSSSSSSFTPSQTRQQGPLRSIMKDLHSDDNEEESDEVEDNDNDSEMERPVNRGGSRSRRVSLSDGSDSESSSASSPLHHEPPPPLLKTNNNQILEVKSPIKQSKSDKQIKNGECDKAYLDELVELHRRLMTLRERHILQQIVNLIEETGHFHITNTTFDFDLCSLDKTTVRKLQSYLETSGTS
Starred values were filed as active, the others as inactive; i = inactive; ? = inconclusive; . = not tested or not shown; & = joins results of further samples. Only part of the results is shown (hit frequency here may not be typical).

SMILES | HNF4A DNA FP | UCH37 inh | Vif TR-FRET | FGF22 binding | E coli growth | RanGTP-Imp inh | AF4-AF9 inh
Cn1c(NC(=O)C2CCCC2)cc(=O)n(C)c1=O | -2.4 | 6.6 | -1% | i | 0.72 | 0.8 | -11
O=C(CSc1nnc(Cc2ccccc2)o1)N1CCc2ccccc21 | 0.9 | 5.2 | 23% | . | 0.76 | -1.2 | .
Cc1ccc(NC(=O)CSc2nnnn2-c2cccnc2)c(C)c1 | 0.8 | 0.0 | . | i | 0.71 | 0.4 | -13
COc1nc(N/N=C/c2ccc(-c3ccccc3[N+](=O)[O-])o2)nc(N2CCOCC2)n1 | -0.6 | . | 0% | i | . | -4.2 | 2.9
COC(=O)c1sc(NC(=O)CSc2nnnn2-c2ccc(C)cc2C)nc1C | -1.9 | 0.8 | 11% | . | 0.69 | 2.5 | .
COc1ccc(C(=O)Nc2cccc3nc(C)ccc23)cc1OC | 2.2 | 3.0 | . | i | 0.68 | 1.7 | 0.8
FC(F)C(F)(F)C(F)(F)C(F)(F)c1cc(-c2ccccc2)n[nH]1 | -0.8 | 2.3 | 9% | . | 0.62 | 7.4 | .
c1ccc(Sc2cccc3ccccc23)c(CNC2=NCCN2)c1 | 0.1 | 7.0 | . | . | 0.6 | -3.8 | .
COc1ccc(NC(=O)/C(C#N)=C/c2ccc[nH]2)c(OC)c1 | 17 | 7.5 | 3% | . | 0.69 | -16 | -3.7
CN1CCN(NC(=O)/C=C/c2cccc([N+](=O)[O-])c2)CC1 | -2.0 | 1.6 | . | i | 0.63 | 2.0 | -2.1
COc1ccccc1C(=O)Nc1ccnn1C1CCN(C2CCCCC2)CC1 | 22 | . | 11% | i | . | . | 0.1
O=C(NCc1cn(-c2ccccc2)nc1-c1ccc(F)cc1)c1cccc([N+](=O)[O-])c1 | -1.1 | 4.6 | . | i | 0.69 | 0.0 | -2.3
O=c1c(OC2OC(CO)C(O)C(O)C2OC2OC(CO)C(O)C(O)C2O)c(-c2ccc(O)cc2)oc2cc(O)cc(O)c12 (centres undefined) | 0.6 | 8.9 | . | i | 0.72 | . | -0.6
COc1cc(CCN=Cc2cc(Cl)cc(Cl)c2O)c([N+](=O)[O-])cc1OC | -6.7 | . | . | i | . | . | -1.8
CC(=O)N1C[C@@H](CO)[C@@H](N(C)C(=O)C2CCCCC2)C[C@H]1c1ccccc1 | 4.0 | . | . | i | . | . | 2.4
O=C(NCc1ccc(Cl)cc1)c1cc(S(=O)(=O)N2CCCCC2)c[nH]1 | 1.4 | 7.0 | . | i | 0.76 | 3.0 | -4.2
Cn1ccnc1SCC(=O)Nc1ccccc1 | 1.7 | 1.9 | 1% | . | 0.69 | 2.0 | .
COc1ccc(C(C(=O)NC(C)(C)C)n2c(COc3ccc(C)cc3)nc3ccccc32)cc1 (centres undefined) | 3.8 | . | . | i | . | . | 1.8
O=C(Nc1ccccc1)Nn1cnnc1 | 2.2 | 1.4 | 3% | i | 0.7 | -2.3 | -0.1
Cc1nnc(NC(=O)c2ccc(-c3cccc(C(F)(F)F)c3)o2)s1 | 5.0 | -21 | -6% | . | 0.7 | . | .
O=C(NCCCn1ccnc1)c1ccc(Br)cc1 | 2.1 | 0.6 | -4% | i | 0.67 | -1.7 | 1.2
CCn1c(Cc2ccccc2)nnc1SCc1cccc(C(=O)O)c1 | 5.3 | 0.5 | . | i | 0.71 | 0.6 | -3.3
COCCCNC(=O)COc1ccc(Cl)c(C)c1 | 1.4 | 2.2 | 16% | . | 0.64 | 1.7 | .
COC(=O)[C@]12CCCCC=C1N(Cc1cccc3ccccc13)C(=O)[C@H](CC(=O)NCCc1ccccc1OC)C2 | 0.6 | . | . | i | . | . | 0.9
CC(=O)c1ccc(-c2cnc3c(NC=O)cc(-c4ccc(C(=O)NC5CC5)cc4)cn23)cc1 | 5.0 | . | . | i | . | . | -2.5
CCCc1nnc(NC(=O)c2cc(OC)cc(OC)c2)s1 | 0.5 | 3.9 | 16% | . | 0.69 | 162* | .
COC(=O)C(CC(C(=O)OC)C(=O)OC)C(=O)OC | -4.1 | 4.6 | -3% | . | 0.75 | 1.7 | .
Cn1c(=O)c2cc(S(=O)(=O)NCCC(=O)NC3CCCCCCC3)ccc2n(C)c1=O | -0.5 | 3.7 | -8%&5% | i | 0.63 | ? | -35
Nn1c(SCC(=O)NC2CCCC2)nnc1C(F)(F)F | 3.6 | . | -4% | i | . | . | 0.2
O=C(COC(=O)CN1C(=O)c2ccccc2C1=O)Nc1ccccc1C(F)(F)F | -1.7 | . | . | i | . | . | -0.7
C[C@@H]1CN([C@@H](C)CO)C(=O)c2cc(Br)cnc2O[C@H]1CN(C)C(=O)c1ccncc1 | -2.3 | . | . | i | . | . | -0.3&-4.4
O=c1c2ccccc2n(Cc2cccc(F)c2)c(=O)n1C1CCCC1 | 1.1 | 1.3 | 4% | . | 0.79 | -0.3 | .
Cc1ccc(-c2nnc3c4ccccc4c(C)nn23)cc1S(=O)(=O)N1CCN(CCO)CC1 | -14 | -1.1 | 2% | . | 0.63 | 3.9 | .
Nc1ccc(C23CC4CC(CC(O)(C4)C2)C3)cc1 | 2.5 | 3.0 | 7% | . | 0.69 | -4.1 | .
C#CCOCCOCCOCCNc1nc(N2CCN(C(=O)[C@H](CCCCN)n3cc([C@@H](N)CO)nn3)CC2)nc(N2CCN(C(=O)[C@H](Cc3ccc(O)cc3)n3cc([C@@H](N)CC(C)C)nn3)CC2)n1 | 2.1 | 0.6 | . | i | . | 1.3 | 16
CCOc1cc(C=O)cc(Br)c1OCC(=O)NCCc1ccccc1 | -0.4 | 1.4 | -4% | i | 0.68 | -0.9 | -0.1
O=C(O)/C=C/C(=O)N1CCN(S(=O)(=O)c2cc(C(F)(F)F)ccc2Cl)CC1 | -0.5 | 0.4 | . | i | 0.66 | -2.4 | -1.0
O=C(CN(Cc1ccco1)C(=O)CNS(=O)(=O)c1ccc(F)cc1)NCc1ccccc1 | 5.2 | -0.5 | . | i | 0.67 | 1.3 | -14
CC(C)(C)c1ccc(COn2ccnc2)cc1 | -1.9 | 2.7 | -8% | i | 0.65 | 2.1 | -1.1
COc1ccc(C2CC(=O)c3cnc(N4CCc5ccccc54)nc3C2)cc1OC (centres undefined) | . | i | -8% | . | 0.7 | 3.1 | .

Marked active in RanGTP-Imp inh, among the entries above:
molecule	HNF4A DNA FP	UCH37 inh	Vif TR-FRET	FGF22 binding	RanGTP-Imp inh	AF4-AF9 inh
CCCc1nnc(NC(=O)c2cc(OC)cc(OC)c2)s1	0.5	3.9	16%	.	162*	.

Other compounds:
SMILES | HNF4A DNA FP | UCH37 inh | Vif TR-FRET | FGF22 binding | E coli growth | RanGTP-Imp inh | AF4-AF9 inh
Cc1cc(-c2nnc(CCC(=O)N(C)CCc3ccccc3)o2)no1 | 3.6 | -1.3 | -5% | i | 0.73 | -4.1 | -34
O=C1CC(NS(=O)(=O)c2cccs2)CN1c1ccc(Cl)cc1 (centres undefined) | -1.3 | 0.5 | 8% | i | 0.58 | 1.7 | -1.0
COc1ccc2ccccc2c1C(=O)/C=C\c1ccoc1 | 0.9 | 9.4 | . | . | 0.67 | -1.3 | .
Cc1ccc(C)c(NC(=S)c2ccc3ccccc3n2)c1 | 1.4 | 6.0 | -11% | i | 0.72 | -3.9 | 7.2
Cn1c2c(c(=O)n(C)c1=O)C(NC(=O)c1ccco1)(C(F)(F)F)C(=O)N2 (centres undefined) | -0.5 | 3.6 | -2% | . | 0.7 | -4.5 | .
CC(=O)c1cccc(NC(=O)CN2C(=O)C3C4C=CC(C4)C3C2=O)c1 (centres undefined) | 1.2 | 2.2 | -1% | . | 0.7 | 0.9 | .
O=C(c1ccccc1F)N1CCN(c2ncccn2)CC1 | -0.5 | 3.4 | -13% | . | 0.69 | 0.3 | .
C/C(CC(=O)Nc1ccc2c(c1)OCCO2)=N\NC(=O)COc1ccccc1C | 0.0 | . | . | i | . | -1.3 | -3.0
O=C(O)C1CC(c2cccc(Br)c2)=NO1 (centres undefined) | 2.3 | -0.5 | -1% | . | 0.67 | 0.4 | .
O=C(/C=C\c1ccco1)Oc1cccc2cccnc12 | -11 | 4.1 | 9% | i | 0.65 | 0.6 | 4.0
Cc1ccccc1OCC(=O)Nc1ccc(N2CCN(C(=O)C(C)C)CC2)c(Cl)c1 | -1.3 | 0.3 | -4% | . | 0.71 | -0.6 | .
COc1cccc2cc(C(=O)CS(=O)(=O)c3ccc(C)cc3)c(=O)oc12 | -1.1 | -0.3 | . | . | 0.7 | -1.3 | .
Cc1ccc(NC(=O)CNC(=O)C2CCCCC2)nc1 | -1.0 | 4.5 | 4% | i | 0.66 | 3.2 | 8.6
CC(OC(=O)c1cccc(-n2cnnn2)c1)C(=O)Nc1ccccc1F (centres undefined) | -0.5 | -0.4 | 11% | i | 0.61 | 5.6 | 1.6
COc1ccc(CCNC(=O)CCN2C(=O)C(C)Oc3ccc(C)cc32)cc1OC (centres undefined) | 0.9 | 5.9 | 22% | . | 0.73 | -3.3 | .
COc1ccccc1NC(=O)COn1nnc2ccc(S(=O)(=O)N3CCOCC3)cc21 | 2.1 | 1.6 | 5% | i | 0.69 | -1.8 | -0.6
O=C(CSc1nc(-c2ccc(F)cc2)cs1)NC(=O)NCc1ccco1 | -1.9 | 1.9 | 21% | . | 0.69 | 1.8 | .
Cc1ccc(Sc2ncccc2C(=O)NCc2cc([N+](=O)[O-])ccc2O)c(C)c1 | -1.9 | 6.3 | -9% | i | 0.71 | -3.7 | 0.6
COc1cc(C(=O)OCC(=O)Nc2c(F)c(F)c(F)c(F)c2F)cc(OC)c1OC | -0.1 | 1.0 | 11% | . | 0.74 | -1.8 | .
O=C(Cn1[nH]c(=O)c2ccccc2c1=O)OCC(=O)N1CCCc2ccccc21 | -0.8 | 3.6 | 7% | . | 0.71 | -12 | .
O=C(NCc1ccccc1Cl)c1[nH]c(C(F)(F)F)nc1-c1ccccc1 | -3.6 | . | . | i | . | . | -0.3
O=C(C1CCC(CNc2c(N3CCCCC3)c(=O)c2=O)CC1)N1CCN(c2ccccn2)CC1 (centres undefined) | -1.0 | 2.4 | . | i | 0.68 | 3.2 | -0.5
O=C(Cn1cnc2c(nnn2-c2cccc(Cl)c2)c1=O)N1CCCC1 | 1.7 | 3.2 | 0% | . | 0.74 | 0.1 | .
CCC(C)(C)NC(=S)Nc1ccccc1C | -2.1 | -0.6 | . | i | 0.68 | -2.1 | -9.5
CCNC(=O)NC1(C(=O)N2CCC(Cc3ccccc3)CC2)CCCCC1 | 0.4 | -0.2 | . | i | 0.7 | ? | -11
COc1ccc(NC(=O)CN(C)C(=O)c2cccc(NS(=O)(=O)c3ccc(Br)cc3)c2)cc1 | 0.2 | 2.1 | -2% | i | 0.72 | -1.0 | -2.5
CCOCCn1c(CN2CCN(C)CC2)nc2c1c(=O)n(C)c(=O)n2C | 1.8 | -2.0 | . | i | 0.72 | 0.0 | -8.0
Cc1cc(C)cc(-n2cc(C(=O)O)c(=O)cc2C)c1 | 0.9 | 4.4 | 11% | i | 0.67 | 0.9 | 3.0
COc1ccc(C(O)c2nc(-c3cccc(O)c3)cs2)cc1 (centres undefined) | 0.3 | . | . | i | . | . | -2.1
COc1cccc(CNC(=O)CN2C(=O)CCSc3ccc(S(=O)(=O)N4CCCC4)cc32)c1 | 2.5 | 1.3 | . | i | 0.65 | 4.4 | 0.6
